SARS PLpro yeast – inhibitors of SARS-CoV papain-like protease in yeast | S. cerevisiae expressing SARS-CoV PLpro, growth rescue; control for the full effect not named in the record | Potency, µM (series often up to 32.9 µM), without a hit: at the highest dose activity, positive = growth rescue | 330,000 compounds, 0.19% hits; further: 0% is about no effect; nearly all actives have a fitted effect of over 55% in size; growth read by luminescence after 48 h
2A StopGo – lowers the luciferase signal of an FMDV 2A StopGo reporter; human cells with a luciferase reporter of 2A StopGo recoding; control for the full effect not named in the record; Potency, µM (titrated, usually from 57.9 µM), without a hit: at the highest dose signal change, negative = less light; 410,000 compounds, 1.2% hits; active = well fitted falling curve with a large enough effect; inconclusive = small, poorly fitted or top-dose-only effect; inactive = no such curve, though single readings can be large or run the other way; tested in HEK293T cells; further: on the % scale 0 is the no-effect control and ±100 the full control effect; nearly all actives have a fitted effect of over 45% in size; luciferase light after 4 h
Lassa entry inh – Lassa virus entry inhibition; Lassa virus pseudotype entry inhibition, cell reporter; control for the full effect not named in the record; Potency, µM (top dose mostly 37.9 µM), for the others: at the top dose activity change, negative = inhibition, usual class: inhibitors; 300,000 compounds, 1.2% hits; AID 540256; active means well fitted inhibition curve with a large enough effect; inconclusive means small, poorly fitted or top-dose-only effect, or effect the other way; inactive means flat fitted curve, though single readings scatter; tested in HEK293 cells; further: on the % scale 0 is the no-effect control and ±100 the full control effect; nearly all actives have a fitted effect of over 50% in size; luciferase read-out
MARV entry inh – inhibitors of Marburg virus binding or cell entry; Marburg virus pseudotyped entry inhibition, cell reporter; control for the full effect not named in the record; about a third of the inactives were read at about 46 µM; Potency, µM (series often up to 37.8 µM), without a hit: at the highest dose activity change, negative = inhibition, actives largely listed as inhibitors; 300,000 compounds, 1.8% hits; active = well fitted inhibition curve with a large enough effect; inconclusive = small, poorly fitted or top-dose-only effect, or effect the other way; inactive = flat fitted curve, though single readings scatter; tested in HEK293 cells; about a fifth of its hits are not listed in these tables; further: on the % scale 0 is the no-effect control and ±100 the full control effect; luciferase read-out
Cruzain inh Det – blocks cruzain activity in presence of Triton detergent | P25779 | purified cruzain, Z-FR-AMC fluorescence, 0.01% Triton | Potency, µM, for the others: max response, negative = inhibition, most hits filed as inhibitors | 200,000 compounds, 0.43% hits | AID 1478; active means well fitted curve in the direction sought with a large enough effect; inconclusive means small, poorly fitted or top-dose-only effect, or another doubt; inactive means no such curve, though single readings can be large; an effect the other way counts as inactive or inconclusive;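 further: plate controls were neutral wells for no effect and buffer without enzyme for full effect; nearly all actives have a fitted effect of over 40% in size; top concentration of the series not given in the record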
Target sequence (P25779 123-467 limits assumed): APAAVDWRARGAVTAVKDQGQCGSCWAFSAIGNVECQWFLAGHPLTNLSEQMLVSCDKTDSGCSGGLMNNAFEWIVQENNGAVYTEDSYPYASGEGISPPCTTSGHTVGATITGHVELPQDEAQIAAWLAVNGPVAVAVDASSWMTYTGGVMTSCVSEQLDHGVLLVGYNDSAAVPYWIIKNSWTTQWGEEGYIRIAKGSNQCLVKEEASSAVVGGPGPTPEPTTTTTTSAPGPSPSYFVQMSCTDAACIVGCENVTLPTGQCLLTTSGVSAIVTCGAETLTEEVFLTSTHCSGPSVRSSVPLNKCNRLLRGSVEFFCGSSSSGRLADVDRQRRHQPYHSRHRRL
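Compounds were screened in titration against cruzain (1.5 nM) with 0.01% Triton X-100 to counter colloidal aggregation. Activity was the AMC fluorescence increase over 60 s after adding 2 uM Z-FR-AMC at pH 5.5.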
RE007 growth inh – less growth of the S. pombe RE007 Vpr strain | S. pombe RE007 Vpr strain, BacTiter-Glo ATP luminescence, 24 h; control for the full effect not named in the record | Potency, µM (doses to about 92.2 µM), for the others: at the top dose activity change, negative = less growth | 360,000 compounds, 0.21% hits; active = well fitted falling curve with a large enough effect; inconclusive = small, poorly fitted or top-dose-only effect; inactive = no such curve, though single readings can be large or run the other way;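 further: on the % scale 0 is the no-effect control and ±100 the full control effect; nearly all actives have a fitted effect of over 50% in size; the assay follows cell death caused by Vpr and the record does not say whether a fall means rescue or toxicity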
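Fission yeast RE007 carrying one integrated HIV-1 vpr copy, seeded at OD 0.01 in PMG+AL medium with 23 nL pinned compound. Grown 24 h at 30 degrees; viability read by BacTiter-Glo luminescence after 5 min.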
NS1 function inh – influenza NS1 inhibition | Potency, µM (series often up to 46.1 µM), without a hit: at the top dose activity, positive = more growth | S. cerevisiae slowed by influenza A NS1, growth recovery by OD600 | AID 2326 | 270,000 compounds, 0.4% hits; further: actives are rising curves; nearly all actives have a fitted effect of over 50% in size
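Read-out: OD600 growth recovery of NS1-expressing budding yeast. Cells grown overnight at 30C in -URA glucose medium, washed, resuspended and diluted 1:100 in 2% galactose assay medium, pH 6.0. Same strain lacking NS1 served as positive control.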
Cruzain inh noDet – cruzain (T. cruzi) inhibition without detergent; P25779; purified cruzain, Z-FR-AMC fluorescence, no detergent; Potency, µM, for inactives: max response, negative = inhibition, most hits filed as inhibitors; 200,000 compounds, 2.3% hits; AID 1476; active means well fitted curve in the direction sought with a large enough effect; inconclusive means small, poorly fitted or top-dose-only effect, or another doubt; inactive means no such curve, though single readings can be large; an effect the other way counts as inactive or inconclusive;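 further: plate controls were enzyme without inhibitor for no effect and buffer without enzyme for full effect; nearly all actives have a fitted effect of over 40% in size; top concentration of the series not given in the record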
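Detergent-free condition (0.00005% Triton X-100) in acetate buffer pH 5.5 with DTT. 1.5 nM enzyme and compound were pre-mixed 15 min, then 2 uM Z-FR-AMC substrate added; reaction progress from fluorescence change between first and third reads (60 s).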
Starred values were filed as active, the others as inactive; [ ] = remark or other dose. Unless noted, the call rests on the fitted dose curve; in most records, active means well fitted rising curve with a large enough effect; inconclusive means small, poorly fitted or top-dose-only effect; inactive means no such curve, though single readings can be large or run the other way. Potency means the concentration at half of the fitted maximal effect.

Results for Cc1cccc(OCC(=O)NN2C(=O)C3C4C=CC(O4)C3C2=O)c1 (stereo not given) ?
SARS PLpro yeast: 0%; 2A StopGo: -10%; Lassa entry inh: 13%[46.1 µM]; MARV entry inh: inconclusive; RE007 growth inh: 3%; NS1 function inh: 0%

What do the screens show for `CCc1nnc(NC(=O)CSc2nnc(-c3ccccc3OC)n2-c2ccccc2)s1`?
SARS PLpro yeast: 10%; 2A StopGo: -20%; Lassa entry inh: -10%; MARV entry inh: -26%; Cruzain inh Det: -2.9%; RE007 growth inh: -8%; NS1 function inh: -3%; Cruzain inh noDet: 5%

How did COc1ccc(-c2sc(Nc3ccccc3)n[n+]2-c2ccc(F)cc2)cc1Br do in these assays?
SARS PLpro yeast: 13%; 2A StopGo: -19%; RE007 growth inh: -1%; NS1 function inh: 17%

How did CCOc1ccc(NC(=O)c2sc(-n3nc(C)c(CCC(C)C)c3C)nc2C)cc1 do in these assays?
2A StopGo: -21%; Lassa entry inh: 3%[46.1 µM]; MARV entry inh: 28%[46.1 µM]; Cruzain inh Det: -2.3%; Cruzain inh noDet: 1%

Results for CCN(CC)S(=O)(=O)c1cccc(C(=O)NCc2ccccc2)c1 ?
SARS PLpro yeast: -1%; 2A StopGo: 9%; Lassa entry inh: -6%; MARV entry inh: -7%[46.1 µM]; RE007 growth inh: -15%; NS1 function inh: 1%

Results for CC(C)OC(=O)CC(=O)CSc1nc2c(cc1C#N)CCCC2 ?
2A StopGo: 44%[activator]; Lassa entry inh: 15%; MARV entry inh: -21%[46.1 µM]; Cruzain inh Det: -6.1%; RE007 growth inh: -8%; NS1 function inh: -4%; Cruzain inh noDet: 13%

What do the screens show for `O=C(CSCCO)Nc1cccc2ccccc12`?
SARS PLpro yeast: 10%; 2A StopGo: -3%; Lassa entry inh: -12%; MARV entry inh: -6%; Cruzain inh Det: 1.7%; RE007 growth inh: 0%; NS1 function inh: 3%; Cruzain inh noDet: -4%

What do the screens show for `c1ccc2c(c1)OCC(CNc1ncnc3sccc13)O2` (stereo not given)?
SARS PLpro yeast: 0%; 2A StopGo: inconclusive; Lassa entry inh: -31%; MARV entry inh: inconclusive; Cruzain inh Det: -1.7%; RE007 growth inh: 20%; NS1 function inh: -13%; Cruzain inh noDet: inconclusive

How did CC(C)(C)OC(=O)CNC(=O)c1nc[nH]c1C(=O)N1CCc2ccccc2C1 do in these assays?
SARS PLpro yeast: -1%; 2A StopGo: -1%; RE007 growth inh: 2%; NS1 function inh: -7%

What do the screens show for `Cc1ccc(N2CCN(CC(O)COc3ccc([N+](=O)[O-])cc3)CC2)cc1` (stereo not given)?
SARS PLpro yeast: -1%; 2A StopGo: -9%; Lassa entry inh: 2%[46.1 µM]; MARV entry inh: 3%[46.1 µM]; RE007 growth inh: 6%

What do the screens show for `O=C(Nc1ccc(F)cc1)c1oc2ccccc2c1NC(=O)C1CCCC1`?
SARS PLpro yeast: -11%; 2A StopGo: 3%; Lassa entry inh: 1%; MARV entry inh: 14%; Cruzain inh Det: -2.7%; RE007 growth inh: 5%; NS1 function inh: -11%; Cruzain inh noDet: 1%

What do the screens show for `N#Cc1c(NC(=O)c2ccc([N+](=O)[O-])o2)sc2c1CCC2`?
SARS PLpro yeast: -15%; 2A StopGo: -63%; Lassa entry inh: inconclusive; MARV entry inh: inconclusive; RE007 growth inh: inconclusive; NS1 function inh: -76%

Results for Cn1cc(-c2cc3n(n2)CCC(=O)N3CC(=O)NCc2ccccc2)c2ccccc21 ?
2A StopGo: 9%; Lassa entry inh: 9%[46.1 µM]; Cruzain inh Det: -3.9%; Cruzain inh noDet: inconclusive

Results for O=C(NNC(=O)c1ccccc1-n1cccc1)c1ccccc1 ?
SARS PLpro yeast: inconclusive; 2A StopGo: -5%; Lassa entry inh: 13%; MARV entry inh: 0%; Cruzain inh Det: 2.5%; RE007 growth inh: -4%; NS1 function inh: 6%; Cruzain inh noDet: 4%

Results for CCCC(=O)Nc1ccc2oc(-c3ccc(OC)c(Br)c3)nc2c1 ?
SARS PLpro yeast: -2%; 2A StopGo: 35%[activator]; Lassa entry inh: 7%; MARV entry inh: inconclusive; Cruzain inh Det: 2.1%; RE007 growth inh: -11%; NS1 function inh: -31%; Cruzain inh noDet: inconclusive

Results for COc1ccc(NC2=C(Cl)C(=O)N(CCc3ccccc3)C2=O)cc1 ?
SARS PLpro yeast: 9%; 2A StopGo: 49%[activator]; Lassa entry inh: 16%; MARV entry inh: 13%; Cruzain inh Det: -6.7%; RE007 growth inh: 3%; NS1 function inh: 10%; Cruzain inh noDet: -1%

Results for Cc1ccc2nc3c(cc(C(=O)NCCN4CCOCC4)c(=N)n3CCCN3CCOCC3)c(=O)n2c1 ?
SARS PLpro yeast: -1%; 2A StopGo: 0%; Lassa entry inh: -8%; MARV entry inh: inconclusive; RE007 growth inh: -3%; NS1 function inh: 6%

What do the screens show for `CCOC(=O)c1cccc(NC(=O)c2ccc3nc(Cc4ccccc4)oc3c2)c1`?
2A StopGo: inconclusive; Lassa entry inh: -24%[46.1 µM]; Cruzain inh Det: -6.1%; Cruzain inh noDet: -8%

What do the screens show for `CCSc1ncc(/C=N/Nc2ccc(F)cc2)n1C`?
SARS PLpro yeast: 3%; 2A StopGo: 9%; Lassa entry inh: -30%; MARV entry inh: -10%; Cruzain inh Det: 1.8%; RE007 growth inh: 28%; NS1 function inh: -56%; Cruzain inh noDet: 2%

What do the screens show for `COc1ccc(Cl)cc1NC(=O)c1[nH]c(C)c(C(C)=O)c1C`?
SARS PLpro yeast: 1%; 2A StopGo: -10%; Lassa entry inh: 1%; MARV entry inh: -3%[46.1 µM]; RE007 growth inh: 4%; NS1 function inh: 14%

How did COc1cc(NC(=O)CCCN2C(=O)CCn3nc(-c4cn(C)c5ccccc45)cc32)cc(OC)c1 do in these assays?
2A StopGo: inconclusive; Lassa entry inh: 11%[46.1 µM]; Cruzain inh Det: -9.0%; Cruzain inh noDet: inconclusive

How did N#CCOC(=O)C1CCN(S(=O)(=O)c2ccc3c(c2)OCCO3)CC1 do in these assays?
SARS PLpro yeast: 1%; 2A StopGo: -19%; Lassa entry inh: 5%; MARV entry inh: 18%; RE007 growth inh: -2%

Results for CN(C)S(=O)(=O)c1cccc(C(=O)OCC(=O)N2c3ccccc3NC(=O)C2(C)C)c1 ?
SARS PLpro yeast: 12%; 2A StopGo: inconclusive; Lassa entry inh: 8%; MARV entry inh: 20%; Cruzain inh Det: -2.5%; RE007 growth inh: 1%; NS1 function inh: -2%; Cruzain inh noDet: 3%

What do the screens show for `COC(=O)C1=C(C)N(C)C(C)=C(C(=O)OC)C1c1ccc(F)c(Br)c1`?
SARS PLpro yeast: -15%; 2A StopGo: inconclusive; Lassa entry inh: 2%; MARV entry inh: inconclusive; Cruzain inh Det: -5.5%; RE007 growth inh: -2%; NS1 function inh: -13%; Cruzain inh noDet: -2%

How did COc1cc(C(=O)Nc2ccc(-n3cnnn3)c(C)c2)cc(OC)c1OC do in these assays?
SARS PLpro yeast: 1%; 2A StopGo: 6%; Lassa entry inh: 0%; MARV entry inh: 26%; Cruzain inh Det: 4.5%; RE007 growth inh: -4%; NS1 function inh: -4%; Cruzain inh noDet: -1%

How did CCOC(=O)N1CCN(C(=O)CN(c2cccc(OC)c2)S(C)(=O)=O)CC1 do in these assays?
SARS PLpro yeast: 0%; 2A StopGo: 4%; Lassa entry inh: -16%; MARV entry inh: -2%; Cruzain inh Det: -4.2%; RE007 growth inh: 12%; NS1 function inh: 3%; Cruzain inh noDet: -5%

Results for S=C(NCc1cccnc1)Nc1cc(Cl)cc(Cl)c1 ?
SARS PLpro yeast: 0%; 2A StopGo: 62%[activator]; RE007 growth inh: 7%; NS1 function inh: -6%

How did O=C(CCSCCc1ccccn1)Nc1ccccn1 do in these assays?
SARS PLpro yeast: -3%; 2A StopGo: -24%; Lassa entry inh: 18%; MARV entry inh: -7%; Cruzain inh Det: 2.1%; RE007 growth inh: 14%; NS1 function inh: -3%; Cruzain inh noDet: 2%

Results for COc1ccc(S(=O)(=O)N2CCCCCC2)cc1C(=O)N(C)Cc1cccs1 ?
SARS PLpro yeast: 3%; 2A StopGo: -8%; Lassa entry inh: -17%; MARV entry inh: -25%; RE007 growth inh: 6%

What do the screens show for `Cc1occc1C(=O)N/N=C/c1ccccn1`?
SARS PLpro yeast: -2%; 2A StopGo: 44%[activator]; RE007 growth inh: -9%; NS1 function inh: 2%

How did Cc1ccnc2ccc(-c3nc4ccccc4o3)cc12 do in these assays?
SARS PLpro yeast: -4%; 2A StopGo: -3%; Lassa entry inh: 30%; MARV entry inh: inconclusive; Cruzain inh Det: -23%; RE007 growth inh: -27%; NS1 function inh: -40%; Cruzain inh noDet: inconclusive

How did O=C1OCc2ccc(NC(=O)c3c(F)cccc3Cl)cc21 do in these assays?
SARS PLpro yeast: 1%; 2A StopGo: 29%; Lassa entry inh: 1%[46.1 µM]; MARV entry inh: inconclusive; RE007 growth inh: -1%; NS1 function inh: 14%

Results for Cc1cccc(C)c1NC(=O)CSc1nc(C2CC2)nc2ccccc12 ?
SARS PLpro yeast: 1%; 2A StopGo: inconclusive; Lassa entry inh: inconclusive; MARV entry inh: -7%[46.1 µM]; RE007 growth inh: 6%; NS1 function inh: -11%

What do the screens show for `CCCN(CCC)C(=O)c1ccccc1C(=O)N(CCC)CCC`?
SARS PLpro yeast: 6%; 2A StopGo: 0%; Lassa entry inh: -15%; MARV entry inh: -1%; Cruzain inh Det: -1.0%; RE007 growth inh: -1%; NS1 function inh: -4%; Cruzain inh noDet: 8%

What do the screens show for `CCOC(=O)c1ccc(NC(=O)Nc2ccc3c4c(cccc24)C(=O)N3CC)cc1`?
SARS PLpro yeast: 0%; 2A StopGo: 23%; Lassa entry inh: 0%; MARV entry inh: inconclusive; Cruzain inh Det: -3.5%; RE007 growth inh: 3%; NS1 function inh: -15%; Cruzain inh noDet: inconclusive

How did COC(=O)c1cc(NC(=O)c2ccccc2F)cc(C(=O)OC)c1 do in these assays?
SARS PLpro yeast: -1%; 2A StopGo: -6%; Lassa entry inh: -25%[46.1 µM]; MARV entry inh: inconclusive; RE007 growth inh: 4%

Results for CCOc1ccc(C2C(C(N)=O)=C(C)Nc3nc(-c4cccc(Cl)c4)nn32)cc1OC (stereo not given) ?
2A StopGo: 2%; Lassa entry inh: -14%[46.1 µM]; MARV entry inh: 2%[46.1 µM]; Cruzain inh Det: -9.3%; Cruzain inh noDet: inconclusive

Compound activity: PubChem BioAssay, National Center for Advancing Translational Sciences (NCATS)
